# HNF4A DNA FP = change in binding of human HNF4 alpha to DNA | activity change, % at 10 µM | AID 1224865 | HNF4a-FITC DNA binding, fluorescence polarization, 1 h | 0.3% of 360,000 active; in the data active means activity change above about 30%, passing the limit was not always enough;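 further: controls were the assay level and a saturating level of protein; the project sought stronger binding though the title names inhibitors; some compounds called inactive have numbers as strong as hits; positive values seem to mean higher polarization but the record does not say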
# Target sequence (P41235 whole entry, looked up): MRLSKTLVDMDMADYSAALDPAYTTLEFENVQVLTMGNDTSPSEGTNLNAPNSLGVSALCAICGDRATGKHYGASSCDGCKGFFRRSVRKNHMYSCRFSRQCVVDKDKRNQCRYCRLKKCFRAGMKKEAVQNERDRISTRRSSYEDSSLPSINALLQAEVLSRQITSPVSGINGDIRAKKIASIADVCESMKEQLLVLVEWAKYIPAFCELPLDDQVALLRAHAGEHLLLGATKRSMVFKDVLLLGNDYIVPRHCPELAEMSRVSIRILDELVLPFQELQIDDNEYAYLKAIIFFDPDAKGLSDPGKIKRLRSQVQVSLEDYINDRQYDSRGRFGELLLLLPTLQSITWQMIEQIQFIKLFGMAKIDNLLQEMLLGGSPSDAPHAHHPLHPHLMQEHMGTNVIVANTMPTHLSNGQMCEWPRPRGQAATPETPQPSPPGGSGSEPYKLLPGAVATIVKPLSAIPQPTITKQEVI
# Vif A3G = HIV-1 Vif–A3G interaction blockers – biochemical, TR-FRET, GST-Vif 1-94, biotin-A3G peptide, dose response retest, primary screen (AID 1117319) | 0.57% of 260,000 active | TR-FRET GST-Vif / biotin-A3G peptide binding; higher % means a stronger effect; test concentration not given here; strong numbers were not always called active | one-dose inhibition, %; IC50 in µM for titrated hits;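 active means above the screen mean plus three standard deviations and confirmed in dose response; inconclusive means results disagree or hit not tested in dose response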;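 further: Vif residues 1-94 fused to GST binding biotinylated APOBEC3G peptide 110-148; 0% = full assay without inhibitor and 100% = GST in place of GST-Vif; retest series ran down from 100 µM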
# LANA-H2B inh = blocks KSHV LANA binding to histone H2A/H2B; cell-free LANA-H2A/H2B peptide, fluorescence polarization; 0.6% of 320,000 active; Q9QR71; AID 2629; inhibition, % (no concentration beside the values); in the data active means inhibition mostly above about 10%, no sharp cut-off; inactive means mostly below about 6.7%;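 further: stock transfer was 7.5 nL into about 10 µL; 0% = median of vehicle wells and 100% = median of positive control wells; one replicate is shown; the record names a cut of 25% in any replicate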
# Calb FLC = C. albicans growth modulation with fluconazole. C. albicans CaCi-2 (fluconazole-resistant clinical isolate) + fluconazole, Alamar Blue growth, 48 h. growth inhibition, % (no concentration beside the values). 0.57% of 300,000 active. AID 1979;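 active means most replicates above 75%; inconclusive means exactly half above 75%; inactive means most below 75%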;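 further: all wells also contain fluconazole at 8 µg/ml as a sub-toxic cotreatment; 0% = median of DMSO wells and 100% = median of geldanamycin control wells; wells of about 8 µL received 7.5 nL stock; the first replicate is given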
# B2AR ag = human beta-2 adrenergic receptor agonism by FAP; P07550; Am2.2-beta2AR cells, FAP receptor internalization, flow cytometry; reference of the scale not given here; response, % (concentration not given with the values); 0.43% of 340,000 active;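 active means response above a set limit, near 3 SD of response in nonfluorescent compounds, cut at about 42% in these data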;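 further: stock transfer was 100 nL into about 11 µL; a reference agonist was the positive control; negative values mostly stem from fluorescent compounds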
# Target sequence (P07550 whole entry, looked up): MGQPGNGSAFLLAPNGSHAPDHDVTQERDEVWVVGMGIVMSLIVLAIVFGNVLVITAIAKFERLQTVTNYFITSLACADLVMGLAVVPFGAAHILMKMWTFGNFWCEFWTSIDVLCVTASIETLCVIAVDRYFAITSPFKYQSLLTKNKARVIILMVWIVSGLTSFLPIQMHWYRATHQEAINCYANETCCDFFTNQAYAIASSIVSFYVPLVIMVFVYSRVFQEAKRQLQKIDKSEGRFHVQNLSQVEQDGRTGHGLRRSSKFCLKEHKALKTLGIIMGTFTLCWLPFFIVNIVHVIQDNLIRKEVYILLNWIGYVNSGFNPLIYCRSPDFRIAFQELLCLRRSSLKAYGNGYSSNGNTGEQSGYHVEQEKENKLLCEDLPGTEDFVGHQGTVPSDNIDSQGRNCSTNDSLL
# RanGTP-Imp inh = inhibitors of RanGTP-importin-beta interaction, primary screen, biochemical, FRET, CFP-Ran, YFP-importin-beta, homogeneous. cell-free CFP-Ran/YFP-importin-beta FRET ratio. inhibition, % (test concentration not listed). 1.1% of 300,000 active. AID 2216;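 active means most replicates above 15%; inconclusive means exactly half above 15%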;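 further: 0% = DMSO wells and 100% = Ran loaded with GDP instead of GTP; wells of about 40 µL received 100 nL stock; the first replicate is given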
# ALR inh = blocks human ALR sulfhydryl oxidase activity | AID 485317 | inhibition, % (no concentration beside the values) | 3.8% of 290,000 active | P55789 | purified ALR, DTT oxidation, H2O2 HRP-luminol luminescence;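 active means mean and each replicate at 75% or more; inconclusive means only one of the two met; inactive means neither met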;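 further: stock transfer was 7.5 nL into about 7.5 µL; 0% = neutral wells and 100% = wells with inactivated enzyme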
# Target sequence (P55789 whole entry, looked up): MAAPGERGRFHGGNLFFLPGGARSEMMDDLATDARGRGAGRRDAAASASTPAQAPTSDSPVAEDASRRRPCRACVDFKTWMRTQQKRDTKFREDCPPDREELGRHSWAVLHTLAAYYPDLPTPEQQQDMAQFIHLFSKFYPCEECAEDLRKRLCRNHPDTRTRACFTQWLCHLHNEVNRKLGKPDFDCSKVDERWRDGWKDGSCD
# * hit, by the source's call; ? = inconclusive; . = no result given; & = joins results of further samples.
Compound,HNF4A DNA FP,Vif A3G,LANA-H2B inh,Calb FLC,B2AR ag,RanGTP-Imp inh,ALR inh
CCOC(=O)c1c(NC(=O)COC(=O)c2cc(OC)c(OC)cc2[N+](=O)[O-])sc(C)c1CC,-5.0,.,-0.7,6,2,2.4,-6
COc1ccc(-c2[nH]n(-c3ccc([N+](=O)[O-])cc3)c(=O)c2C=NCc2ccccc2)cc1,21,-6%,-1.8,-5,-1,2.2,0
Cn1c(SCC(=O)c2ccccc2)nnc1-c1cnccn1,-0.8,-2%,3.1,0,-6,0.8,97*
Cc1ccc(CNC(=O)C2CCC(=O)N(CCc3ccccc3)C2)s1 (stereo not given),-1.0,.,18*,-3,1,0.3,5
CC1CCc2sc(NC(=S)NC(=O)c3ccccc3)c(C#N)c2C1 (stereo not given),-2.7,.,2.2,10,-25,2.0,3
COc1cc(C(=O)OC2CCCCC2=O)cc(OC)c1C (stereo not given),-4.9,30%,-2.7,0,6,-2.4,60
COc1ccccc1NS(=O)(=O)c1ccc2nc(CCl)[nH]c2c1,7.3,-1%,-5.1,-4,2,8.2,-49
Clc1ccc2scc(CN3CCCC3)c2c1,0.6,.,-3.3,-1,-1,-2.4,-19
COc1ccccc1NC(=O)c1ccc(-n2cncn2)nc1,0.3,-10%,-2.0,-6,1,?,2
Cc1noc(/C=C/N(C)C)c1S(=O)(=O)N1CCCC(C(=O)Nc2ccc3c(c2)OCO3)C1 (stereo not given),-0.2,29%,6.1,.,9,.,1
Cc1ccc(CNC(=O)CCCc2nc3ccccc3s2)cc1,6.5,6%,3.9,-3,-3,-5.5,-7
CC1(C)CC(CCC(=O)Nc2ccccc2Cl)C(=O)O1 (stereo not given),-2.2,3%,0.1,6,8,-6.6,-10
O=C(O)CSc1c(O)c2ccccc2[nH]c1=O,-0.4,.,-1.5,-6,0,4.4,6
O=C1CCN(Cc2ccc(Br)cc2)CCN1[C@H](CO)c1ccccc1,-1.3,.,4.2,2,-5,-0.1,.
Cn1c(=O)c2c(ncn2CC(=O)N2CCN(c3ccc(F)cc3)CC2)n(C)c1=O,2.7,20%,-0.3,-2,-15,1.4,44
CCc1ccc(NC(=O)c2cccc(C(=O)Nc3ccc(CC)cc3)n2)cc1,-3.0,.,2.1,1,8,4.1,-23
CC(=O)Nc1cccc(NC(=O)CSc2nc(=O)n(Cc3ccncc3)c3c2CCC3)c1,0.2,3%,3.3,-4,-9,4.3,99*
COc1ccc(NC(=O)CNc2ccc(C#N)cc2)cc1,1.1,18%,-2.4,29,1,3.7,-9
CN(C)S(=O)(=O)c1cccc(NC(=O)COC(=O)c2cn(-c3ccccc3)nc2-c2ccccc2)c1,0.1,.,-3.8,-18,-21,0.4,-7
CC(C)NC(=O)NC(=O)COC(=O)c1ccc([N+](=O)[O-])cc1Cl,-1.9,2%,4.6,19,-2,2.0,3
COc1ccc(NC(=O)CN(c2ccc(C(C)C)cc2)S(=O)(=O)c2c(C)noc2C)cc1OC,0.8,4%,-1.6,0,0,-1.4,36
Cc1cc(Cl)ccc1OCC(=O)Nc1nc(-c2cccnc2)cs1,5.4,.,4.2,3,-13,6.9,-5
COC(=O)c1ccccc1NC(=O)C1CCCN(S(=O)(=O)c2ccccc2)C1 (stereo not given),1.1,-7%,-1.0,8,12,6.3,-2
CCC(=O)NC(Nc1cc(C)ccn1)(C(F)(F)F)C(F)(F)F,-5.7,6%,-0.1,17,5,-3.7,-4
CS(=O)(=O)NCCOc1ccc(S(=O)(=O)N2CCCc3ccccc32)cc1,3.6,-6%,-0.8,18,3,3.2,-1
Cc1ccc(C)c(S(=O)(=O)N2CCN(C(=O)CCCc3c[nH]c4ccccc34)CC2)c1,3.7,2%,-2.7,3,1,-0.5,-1
Cc1cccc(C)c1NC(=O)NC1(C(=O)N2CCOCC2)CCCCC1,3.2,-8%,1.5,-21,-3,6.5,-4
O=C1C2CCCN2C(=S)N1C1CCCCC1 (stereo not given),1.8,.,4.6,7,1,-6.2,-3
Cc1cccc(NS(=O)(=O)c2ccc(Cl)cc2)n1,-0.8,.,-12,-5,-1,2.5,-5
O=C(NC(=S)Nc1ccccc1N1CCCCC1)c1ccc(F)cc1,0.7,12%,-7.2,16,-3,-1.0,-5
COc1ccc(C2=C(C)CC(C)(C)NC2=O)cc1OC,1.0,3%,-1.3,-4,-6,-1.5,-3
O=C(O)c1cccc(CN2C(=O)SC(Nc3ccccc3)C2=O)c1 (stereo not given),-3.0,3%,-0.6,8,-4,-1.0,22
Cc1sc2nc(SCc3ccccc3)n(Cc3ccco3)c(=O)c2c1C,2.1,7%,-6.7,1,6,1.7,3
COc1cccc(C2CC(c3cccs3)=NN2S(C)(=O)=O)c1OC (stereo not given),3.2,-2%,-0.9,19,17,-0.4,0
CN(C)/C(=N\S(=O)(=O)c1ccc(Cl)cc1)c1ccc(F)cc1,0.2,.,5.4,-24,-4,-1.3,-1
Cc1c(C=O)c(=O)n(-c2ccccc2)n1C,-0.3,6%,4.8,5,-5,-4.7,-18

# Ordered by the number under B2AR ag (smallest number first): 3 of the compounds above.
structure | HNF4A DNA FP | Vif A3G | LANA-H2B inh | B2AR ag | RanGTP-Imp inh | ALR inh
CC1CCc2sc(NC(=S)NC(=O)c3ccccc3)c(C#N)c2C1 (stereo not given) | -2.7 | . | 2.2 | -25 | 2.0 | 3
O=C1CCN(Cc2ccc(Br)cc2)CCN1[C@H](CO)c1ccccc1 | -1.3 | . | 4.2 | -5 | -0.1 | .
COc1ccccc1NS(=O)(=O)c1ccc2nc(CCl)[nH]c2c1 | 7.3 | -1% | -5.1 | 2 | 8.2 | -49

# Next part
Compound,HNF4A DNA FP,Vif A3G,LANA-H2B inh,Calb FLC,B2AR ag,RanGTP-Imp inh,ALR inh
CCCCN(CCCC)c1cc(C)nc(-c2ccccc2O)n1,-2.9,?,3.2,-8,3,7.1,-15
Fc1ccccc1CNC(=S)Nc1cccc(C(F)(F)F)c1,2.0,.,0.3,-16,4,1.0,5
O=C(Nc1ccc(Br)cc1)Nc1cnccn1,0.7,.,.,-1,-2,2.4,.
CN(C)C(=O)c1cc(C(=O)c2ccccc2Br)c[nH]1,0.9,-6%,-5.8,10,-7,-2.0,3
CCCCOc1ccc(C(=O)NNC(=O)C2C3CCC(C3)C2C(=O)O)cc1 (stereo not given),-3.5,.,-0.3,5,-3,3.2,-7
CCOc1cc(/C=N/NC(=O)CSc2nncn2C)ccc1OCc1ccccc1,-0.4,.,1.4,-1,-18,0.6,-2
CCNc1nc(NCC)n2c(SCC(=O)Nc3ccc(Br)cc3F)nnc2n1,2.0,9%,8.3,7,7,?,98*
Clc1ccc(-c2nc(-c3ccccn3)no2)cc1Cl,6.6,?,-2.2,-6,-13,-0.8,1
O=C(CCN1CCOCC1)N/N=C/c1cc(Br)cc(Br)c1O,2.1,.,4.3,20,6,5.3,53
CC(=O)c1ccc(NC(=O)CCSCCC(=O)Nc2ccc(C(C)=O)cc2)cc1,0.9,-4%,-0.3,3,-1,-1.8,-8
O=C(COC(=O)CNC(=O)c1ccccc1F)Nc1ncc(Cl)cc1Cl,-3.9,5%,0.6,.,6,.,.
CCCCC1=CC2=CC(=O)C(C)(O)C(=O)C2=CO1 (stereo not given),.,.,2.3,2,.,-6.7,-14
COc1ccc(/C=N/NC(=O)c2cc(C34CC5CC(CC(C5)C3)C4)[nH]n2)cc1OC,-0.7,9%,11,51,8,1.6,-30
CCN(CC)S(=O)(=O)c1ccc2c(c1)N(CC(=O)Nc1cccnc1Cl)C(=O)CO2,-3.9,-8%,1.9,-2,-3,2.6,-7
CCN1CCN(C(=O)c2ccc3c(c2)N(Cc2ccccc2F)C(=O)c2ccccc2S3(=O)=O)CC1,2.2,.,.,-4,9,6.7,-4
Cc1ccc2nc(N3CCN(CCO)CC3)nc(-c3ccccc3)c2c1,-0.7,-5%,-1.5,-10,-1,?,-25
Cc1ccc(N/C=C(/C#N)c2ccsc2)cc1,-3.3,5%,2.2,-3,-8,?,98*
Cc1ccc(CCNC(=O)CS(=O)Cc2nc(-c3cccc(C)c3)oc2C)cc1 (stereo not given),3.1,21%,4.2,-4,5,2.6,99*
CCCN(Cc1cc2ccccc2[nH]c1=O)C(=O)c1cccc([N+](=O)[O-])c1,1.9,2%,3.0,-2,-6,0.7,2
Cc1ccc(-n2[nH]c(C)c(/C=N/Nc3ccc([N+](=O)[O-])cc3[N+](=O)[O-])c2=O)cc1C,-4.5,.,3.7,-8,13,-1.1,7
Cn1cnnc1SCC(=O)Nc1sc2c(c1C#N)CCCCC2,-1.7,?,-0.3,40,5,2.9,12
CCCC/C(C)=N/NC(=O)Nc1ccccc1,3.0,?,1.3,2,-7,3.1,6
Cc1ccc(CSCC(Nc2ccc(C(=O)O)cc2[N+](=O)[O-])C(=O)O)cc1 (stereo not given),-0.4,0%,-2.0,-3,-5,0.9,-6
Cc1nc(CS(=O)c2ccccc2)cc(N2CCOCC2)n1 (stereo not given),1.5,30%,2.0,-6,-3,-1.0,6
CCc1ccccc1NC(=S)N(Cc1ccc(OC)cc1)CC1CCC(C(=O)O)CC1 (stereo not given),-0.4,83%,-1.5,8,3,-0.4,-1
COc1ccc(NC(=O)/C=C/c2ccc(C)o2)cc1S(=O)(=O)N1CCOCC1,-5.3,23%,3.5,3,-1,-3.0,1
CC1CCc2c(sc3nc(CSc4n[nH]c(N)n4)[nH]c(=O)c23)C1 (stereo not given),2.7,-2%,-2.7,-11,1,-0.3,.
O=C(Nc1nc(-c2ccccc2)cs1)c1ccccc1NS(=O)(=O)c1ccc(F)cc1,-4.2,2%,-1.4,49,16,-2.6,96*
C=CCN1C(=O)CS/C1=N\N=C\c1cccc([N+](=O)[O-])c1,-2.1,3%,-2.5,0,-5,0.4,-4
CCCn1c(SCC(=O)NC23CC4CC(CC(C4)C2)C3)n[nH]c1=O,1.1,7%,-1.4,-10,-4,2.0,-10
CCCCNc1c(-c2ccc(SC(C)CC)cc2)nc2ccccn12 (stereo not given),-8.5&4.6,.,9.1,0,12,0.7,.
Cc1cccc(/C=C2/C(=O)/C(=C/c3ccccc3C)C3CCC2N3C)c1 (stereo not given),0.0,7%,-1.4,-11,6,8.2,1
CCOC(=O)c1sc2nccc(N(C)C)c2c1N=CNOCc1ccccc1,0.3,1%,2.0,-3,1,?,-9
O=C(CSc1nccc(-c2ccc(Br)cc2)n1)NCCc1ccccc1,0.1,-14%,-0.1,5,-1,9.2,14
COc1ccccc1C(=O)NC(=S)Nc1ccc(NC(=O)c2cccs2)cc1,0.0,-2%,0.7,9,-13,-2.4,-5
O=[N+]([O-])c1ccccc1/C=C/CN1CCCCC1,1.5,3%,-0.9,3,-6,0.0,-2
CC1CN(C(=O)c2cccc(COc3ccccc3Cl)c2)CC(C)O1 (stereo not given),0.5,10%,4.0,-4,9,-0.9,-4
O=C(NN1CCOCC1)c1cccc2ccccc12,-2.9,.,-1.1,-10,-6,1.6,0
Cn1c(C(=O)N2CCC(C(N)=O)CC2)cc2c(=O)n(C)c3ccccc3c21,-0.7,-3%,0.1,-5,-2,-1.9,-7
CCOc1ccc(/C=N/Nc2ccccc2)cc1,-1.3,-1%,-2.7,-15,-1,1.8,1
Cc1cc(Cl)ccc1NC(=O)CCN1C(=O)NC(C)(C)C1=O,3.1,-11%,-0.4,.,1,.,-2
CCCC(=O)NC(=S)Nc1nc(-c2ccc(OC)cc2)cs1,1.6,-17%,7.0,1,-6,1.6,3
C=CCOc1c2ccc(C(=O)NC3CCCc4ccccc43)cc2nn1C (stereo not given),-5.5,-3%,-3.2,-10,2,-2.5,-5

# From PubChem BioAssay
